# CtBP-E1A blk: inhibitors of CtBP/E1A interaction; AlphaScreen GST-E1A/His-CtBP binding, 1536-well; stronger effect = lower value; control for the full effect not named in the record; activity change, % (no concentration beside the values); hit rate 0.49% among 340,000; in the data active means activity change below about -65%; inconclusive means about -30% to -65%; inactive means above about -30%; note: % is set by controls: 0 for no effect and ±100 for the full control effect; compound concentration not given in the record
#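 Steps: dispense buffer (Tris pH 8.0, NaCl 300 mM, TCEP 1 mM, BSA, Tween 20); add 5X protein mix (GST-E1A, His-CtBP, 125 nM each); pin 23 nL compound; 2 h at 37 °C, dark; add 5X beads (50 ug/mL); 1 h; read.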
# gsp antagonist: gsp mutant antagonism; gsp-mutant cells, cAMP HTRF, 30 min; control for the full effect not named in the record; Potency, µM (series often up to 76.9 µM), without a hit: top-dose activity change, negative = inhibition, actives largely listed as inhibitors; hit rate 0.4% among 340,000; AID 624288; active = falling curve of any shape with a large fitted effect; inconclusive = falling curve, mostly with a smaller effect; inactive = flat or rising curve; cell line not stated here;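 note: intracellular cAMP measured with PDE inhibitor Ro 20-1724 present during compound exposure; potency is the fitted concentration of half-maximal effect; % is set by controls: 0 for no effect and ±100 for the full control effect; nearly all actives have a fitted effect of over 65% in size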
#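 G418-selected cells were plated in DMEM/10% FBS for 16-24 h at 37C, then treated with compounds plus the PDE inhibitor […] (300 uM solution added) for 30 min at 37C. Intracellular cAMP was measured by HTRF after 30 min lysis at room temperature.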
# Menin MLL FP FL: inhibitors of human menin-MLL interaction, wild-type MLL peptide; FP activity change, % at 61.4 µM; AID 1766; Fluorescence polarization, fluorescein-MLL peptide displacement from menin; 290,000 tested, under 10 active; inconclusive = falling polarisation curve, or a change in total fluorescence; inactive = total fluorescence flat and polarisation flat or rising; no compound was filed as active; the % refers to the polarisation; negative = inhibition;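 note: % of control where 0% means no effect; inhibitors lower the polarisation; unlabelled MLL peptide was the positive control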
# ClpP mod: qHTS Assay for Activators of ClpP | ATP-dependent Clp protease proteolytic subunit (Bacillus subtilis (strain 168)), P80244 | purified B. subtilis ClpP, FRET peptide cleavage, 20 min | Potency, µM (series often up to 57.5 µM), for inactives: top-dose activity change, negative = active | hit rate 1.9% among 340,000 | AID 651965, 2013; active = well fitted falling curve with a large enough effect; inconclusive = small, poorly fitted or top-dose-only effect; inactive = no such curve, though single readings can be large or run the other way; note: potency is the fitted concentration of half-maximal effect; the source files actives as falling curves though it sought activators and does not explain the sign; nearly all actives have a fitted effect of over 65% in size; many hits overshoot -100%
#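 FRET quenching reversal measured ClpP activation: 10 microg/mL B. subtilis ClpP at pH 8 with the FRET-FV decapeptide, read at 430 nm after 320 nm excitation. The 20-min minus 0-min signal was scaled between DMSO/no-enzyme wells and ADEP (5.8 microM final).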
# Sfp PPTase inh: inhibitors of Bacillus subtilis Sfp phosphopantetheinyl transferase. Biochemical Sfp PPTase activity, qHTS. Potency, µM, for inactives: max response, negative = inhibition, most hits filed as inhibitors. hit rate 3.5% among 310,000. AID 1490; active = well fitted inhibition curve with a large enough effect; inconclusive = small, poorly fitted or top-dose-only effect, or another doubt; inactive = no such curve, though single readings can be large or run the other way;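 note: the enzyme is Sfp with the accession as filed and its product quenches rhodamine fluorescence; potency is the fitted concentration of half-maximal effect; 0% = enzyme reaction without inhibitor and -100% = no enzyme wells; top concentration of the series not given in the record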
#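 Reaction rates are the 30-min fluorescence difference (ex 525, em 598 nm) in wells containing 15 nM Sfp, 5 uM rhodamine-CoA and 12.5 uM BHQ-2-YbbR at pH 7.6 with 10 mM MgCl2.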
# TRPV1 PAM: enhances activation of the human vanilloid receptor TRPV1. AID 540277. TRPV1-expressing cells, Fluo-8 calcium influx, capsaicin EC20 potentiation; host cell line not named in the record; control for the full effect not named in the record. hit rate 0.02% among 320,000. potentiation, % at 8.33 µM. Q8NER1; active means potentiation above 80%; inconclusive means 30% to 80%; inactive means below 30%; note: 0% is about no effect
# Target sequence (Q8NER1 whole entry, looked up): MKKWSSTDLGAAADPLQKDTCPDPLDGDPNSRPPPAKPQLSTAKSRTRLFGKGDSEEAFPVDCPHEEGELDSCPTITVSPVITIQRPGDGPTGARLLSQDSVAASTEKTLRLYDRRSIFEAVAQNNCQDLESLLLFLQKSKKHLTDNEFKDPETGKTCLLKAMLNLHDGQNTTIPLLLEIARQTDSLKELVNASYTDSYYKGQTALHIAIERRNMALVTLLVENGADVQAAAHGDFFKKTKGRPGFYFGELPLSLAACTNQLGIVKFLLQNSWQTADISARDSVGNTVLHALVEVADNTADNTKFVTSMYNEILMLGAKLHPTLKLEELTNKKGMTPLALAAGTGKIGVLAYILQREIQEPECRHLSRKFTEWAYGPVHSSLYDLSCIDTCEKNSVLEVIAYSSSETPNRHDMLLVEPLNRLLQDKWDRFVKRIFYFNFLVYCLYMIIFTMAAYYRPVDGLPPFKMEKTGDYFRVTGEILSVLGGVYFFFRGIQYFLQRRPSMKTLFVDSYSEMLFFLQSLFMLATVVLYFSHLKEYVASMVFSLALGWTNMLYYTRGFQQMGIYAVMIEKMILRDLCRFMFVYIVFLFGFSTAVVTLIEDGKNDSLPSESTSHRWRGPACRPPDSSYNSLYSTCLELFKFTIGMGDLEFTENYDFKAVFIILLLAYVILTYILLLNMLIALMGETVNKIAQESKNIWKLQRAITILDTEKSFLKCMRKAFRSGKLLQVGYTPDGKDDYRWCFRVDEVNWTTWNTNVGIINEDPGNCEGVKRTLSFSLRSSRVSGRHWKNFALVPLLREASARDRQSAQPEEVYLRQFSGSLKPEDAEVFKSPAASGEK
#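 Fluo-8 calcium influx in TRPV1-expressing cells, kinetic read (ex 480/em 520 nm). Compound added and read 3 min for agonist activity, followed by capsaicin at EC20 final and 2 min further read for enhancement.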
# gsp agonist: gsp mutant agonism. gsp mutant cells, cAMP HTRF, 30 min; control for the full effect not named in the record. Potency, µM (top dose mostly 76.9 µM), for inactives: at the top dose activation (cAMP increase), hits mostly activators. hit rate 0.13% among 340,000. AID 624287; active = well fitted activation curve with a large enough effect; inconclusive = small, poorly fitted or top-dose-only effect, or another doubt; inactive = no such curve, though single readings can be large or run the other way; cell line not stated here;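 note: phosphodiesterase inhibitor Ro 20-1724 added with compounds to block cAMP breakdown; potency is the fitted concentration of half-maximal effect; nearly all actives have a fitted effect of over 60% in size; about a fifth of the inactives were tested at one dose only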
#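 Cells in DMEM/10% FBS with G418 were pretreated with compounds in DMSO plus […] (300 uM stock) for 30 min at 37C. cAMP was measured by HTRF (cAMP-d2 plus anti-cAMP antibody-K) after 30 min at room temperature.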
# * hit, by the source's call; ? = inconclusive; nt = not tested or not shown; & = joins results of further samples; [ ] = remark or other dose.
SMILES,CtBP-E1A blk,gsp antagonist,Menin MLL FP FL,ClpP mod,Sfp PPTase inh,TRPV1 PAM,gsp agonist
CC(C)CN1C(=O)C(=O)N(CC(=O)N2CCN(c3ccccc3)CC2)C1=O,7,12%,nt,1.1%,nt,5,22%
COc1cc(C(=O)NCCC(=O)NC2CCCc3ccccc32)cc(OC)c1OC (stereo not given),0,8%,nt,nt,16%,-9,?
CNC(=S)NNC(=O)c1ccc(N(C)C)cc1,-4,-2%,5.9,nt,7%,1,5%[15.4 µM]
CC(C)CN1C(=S)SC(C)(C)C1n1oc(=O)n(-c2ccccc2)c1=O (stereo not given),4,-6%,0.2,2.0%,-5%,15,?
CCOC(=O)c1cnc2c(C)cc(C)cc2c1Nc1ccc(S(=O)(=O)Nc2ncccn2)cc1,6,-10%,1.8,-4.4%,-10%,-2,6%
COc1cccc(CNC(=O)CSc2nc3c(oc4ccccc43)c(=O)n2CC2CCCO2)c1 (stereo not given),4,-5%,nt,-1.8%,nt,-3,12%
O=[N+]([O-])c1ccc(NC2CCN(Cc3ccccc3)CC2)c([N+](=O)[O-])c1,nt,-18%,-1.1,2.0%,13%,-38,-15%
CC(=O)Nc1ccc(C(=O)CSc2nc3ccc(C)cc3[nH]2)cc1,12,1%,3.8,4.9%,-10%,-8,-55%[inhibitor]
CCOC(=O)c1cc(CC)sc1NC(=O)CSc1nc2ccccc2c(=O)n1Cc1ccco1,-8,6%,nt,0.3%,-2%,2,-5%
Cc1ccc(SCC(=O)Nc2ccc(-c3nc4ccccc4[nH]3)cc2)cc1,18,2%,nt,25µM*,2%,27,-3%[15.4 µM]
CCOc1ccc(-n2ccnc2)nn1,-3,7%,-4.2,-6.6%,7%,-16,5%
O=S(=O)(c1ccc(S(=O)(=O)N2CCCC2)cc1)N1CCCCC1,4,8%,-9.1,nt,2%,-3,1%
O=C1NC(=S)S/C1=C\c1ccc(SCc2ccco2)o1,-11,?,?,1.2%,20µM*,3,-43%[inhibitor]
COC(CNC(=O)CNC(=S)N(Cc1ccccc1)Cc1cccnc1)OC,-5,14%,-0.1,-0.6%,7%,-8,-14%[15.4 µM]
Cc1cc(S(=O)(=O)N2CCCC2)ccc1OCC(=O)NCc1ccccc1,-15,-16%,nt,1.3%,0%,5,-25%
Cc1cccc(NC(=O)NC2CC(=O)N(c3ccc4c(c3)OCCO4)C2)n1 (stereo not given),-6,8%,-1.6,nt,10%,2,11%[15.4 µM]
Cc1ccc(N2C(=O)CC(SCC(=O)Nc3ccc(S(N)(=O)=O)cc3)C2=O)cc1 (stereo not given),0,10%,-0.3,nt,-3%,3,18%[15.4 µM]
Cc1ccc(S(=O)(=O)Nc2cccc3cccnc23)c([N+](=O)[O-])c1,-80*,-9%,-1.4,0.1%,14%&6%,13,23%[15.4 µM]
CCCn1c(=O)c2sccc2n2c(CCCC(=O)NCC3CCCO3)nnc12 (stereo not given),-4,10%,nt,-8.2%,17%,27,?
CN(C(=O)CC1C(=O)NCCN1Cc1ccc2ccccc2c1)C1CCOCC1 (stereo not given),2,8%,nt,-13%,-8%,26,-33%[inhibitor]
O=C(Nc1ccc2c(c1)OCO2)c1noc2c1CCCC2,-4,-7%,1.5,nt,-10%,-16,-13%[15.4 µM]
Cc1cccc(N2CCN(C(=O)CCS(=O)(=O)c3ccc(Br)cc3)CC2C)c1 (stereo not given),-11,-15%,-3.0,nt,-9%,-7,7%[15.4 µM]
CCn1c(SCC(=O)Nc2c(C#N)cnn2-c2ccccc2)nnc1-c1cccs1,9,-14%,1.0,0.3%,22%,5,1%[15.4 µM]
Cc1ccc(CNC(=O)C2(S(=O)(=O)c3ccccc3)CC=CC2)cc1,nt,3%,0.4,1.9%,12%,21,-12%
Clc1cc2nc(-c3cccnc3Cl)[nH]c2cc1Cl,0,-5%,0.2,3.0%,13%,-24,?
CNC(=O)NC(=O)COc1c(F)c(F)cc(F)c1F,-6,11%,-1.0,nt,13%,-4,-19%[15.4 µM]
N#CC1(NC(=O)CN2CCN(S(=O)(=O)c3ccccc3F)CC2)CCCC1,nt,10%,-0.8,-0.4%,8%,2,-7%
CCCSc1ncc(Cl)c(C(=O)Nc2ccc(S(=O)(=O)N3CC(C)OC(C)C3)cc2)n1 (stereo not given),0,-12%,1.7,-7.3%,14%,3,1%
CCOC(=O)CNC(=O)N1C[C@H]2CON(C)[C@H]2C[C@H]1c1ccccc1Br,4,nt,nt,-1.2%,nt,nt,-40%

# Whole records as entered above:
# Cc1ccc(CNC(=O)C2(S(=O)(=O)c3ccccc3)CC=CC2)cc1 is entered as CtBP-E1A blk: nt; gsp antagonist: 3%; Menin MLL FP FL: 0.4; ClpP mod: 1.9%; Sfp PPTase inh: 12%; TRPV1 PAM: 21; gsp agonist: -12%
# CC(C)CN1C(=S)SC(C)(C)C1n1oc(=O)n(-c2ccccc2)c1=O (stereo not given) is entered as CtBP-E1A blk: 4; gsp antagonist: -6%; Menin MLL FP FL: 0.2; ClpP mod: 2.0%; Sfp PPTase inh: -5%; TRPV1 PAM: 15; gsp agonist: ?

# Ordered by molecular weight (rising): some entries from above
SMILES,CtBP-E1A blk,gsp antagonist,Menin MLL FP FL,ClpP mod,Sfp PPTase inh,TRPV1 PAM,gsp agonist
O=[N+]([O-])c1ccc(NC2CCN(Cc3ccccc3)CC2)c([N+](=O)[O-])c1,nt,-18%,-1.1,2.0%,13%,-38,-15%
Cc1cccc(NC(=O)NC2CC(=O)N(c3ccc4c(c3)OCCO4)C2)n1 (stereo not given),-6,8%,-1.6,nt,10%,2,11%[15.4 µM]
CC(C)CN1C(=O)C(=O)N(CC(=O)N2CCN(c3ccccc3)CC2)C1=O,7,12%,nt,1.1%,nt,5,22%
N#CC1(NC(=O)CN2CCN(S(=O)(=O)c3ccccc3F)CC2)CCCC1,nt,10%,-0.8,-0.4%,8%,2,-7%
CN(C(=O)CC1C(=O)NCCN1Cc1ccc2ccccc2c1)C1CCOCC1 (stereo not given),2,8%,nt,-13%,-8%,26,-33%[inhibitor]
Cc1cccc(N2CCN(C(=O)CCS(=O)(=O)c3ccc(Br)cc3)CC2C)c1 (stereo not given),-11,-15%,-3.0,nt,-9%,-7,7%[15.4 µM]
